# High-throughput results as filed in PubChem.
# PV pol inh: inhibitors of poliovirus RNA polymerase binding and polymerization. poliovirus polymerase elongation, fluorescence polarization; hits give low values. % elongation, % (compound at 16.7 µg/mL). AID 588519. P03300. 0.66% of 150,000 active; in the data active = % elongation below about 90%; note: some results filed as inactive read as strong as hits
# Mtb MbtI inh: inhibitors of Mycobacterium tuberculosis siderophore enzyme MbtI; purified MbtI enzyme, fluorescence intensity read-out; 0.89% of 100,000 active; inhibition, %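 (about 17 µg/mL by stock and volumes)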; AID 493033;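 active = above 50% in both replicates, above 80% if mildly self-fluorescent; inactive = the rest, strongly fluorescent compounds included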;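 note: 0% = mean of negative and 100% = mean of positive controls; one replicate is shown; some compounds called inactive have numbers as strong as hits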
# Target sequence (P9WFX0 whole entry, looked up): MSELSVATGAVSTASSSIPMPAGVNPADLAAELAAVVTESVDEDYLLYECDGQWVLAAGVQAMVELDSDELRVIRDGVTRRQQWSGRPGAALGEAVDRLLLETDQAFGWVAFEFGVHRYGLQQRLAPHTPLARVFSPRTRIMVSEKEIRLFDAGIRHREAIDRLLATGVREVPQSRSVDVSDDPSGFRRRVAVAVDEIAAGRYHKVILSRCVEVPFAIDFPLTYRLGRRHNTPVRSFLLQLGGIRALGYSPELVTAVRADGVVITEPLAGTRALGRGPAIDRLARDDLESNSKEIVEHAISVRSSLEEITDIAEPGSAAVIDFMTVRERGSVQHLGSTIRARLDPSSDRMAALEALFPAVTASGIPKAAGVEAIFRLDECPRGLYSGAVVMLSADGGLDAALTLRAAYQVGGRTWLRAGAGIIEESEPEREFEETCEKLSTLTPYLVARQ
# MenB inh: inhibitors of Mycobacterium tuberculosis MenB enzyme; P9WNP5; MenB enzyme assay, absorbance read-out; some hits fall short of the stated cut; inhibition, %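 (about 12 µg/mL by stock and volumes)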; 0.43% of 100,000 active; AID 540299;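 active = mean of two replicates above 30%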;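 note: 0% = no compound and 100% = wells with inactive enzyme; the first replicate is given; strong numbers were not always called active; inactives centre near -10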
# Target sequence (P9WNP5 whole entry, looked up): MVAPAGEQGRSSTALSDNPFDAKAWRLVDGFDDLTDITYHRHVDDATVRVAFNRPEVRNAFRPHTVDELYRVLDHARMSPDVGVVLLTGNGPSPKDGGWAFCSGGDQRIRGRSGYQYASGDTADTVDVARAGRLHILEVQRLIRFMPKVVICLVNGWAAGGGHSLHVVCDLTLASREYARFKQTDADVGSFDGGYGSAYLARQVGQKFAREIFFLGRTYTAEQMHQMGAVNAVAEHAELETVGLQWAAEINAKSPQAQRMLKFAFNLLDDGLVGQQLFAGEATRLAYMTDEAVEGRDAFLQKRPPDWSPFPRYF
# PV pol inh intensity: further read-out of PV pol inh, marked with its call; % elongation; measured here: total intensity read-out; formula for this scale not given here;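 total fluorescence in place of polarization; lower means less elongation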
# Numbers without * were called inactive; nt = no result given. This is a random part of the collection; overall some 1.7% were active at least once.
SMILES,PV pol inh,PV pol inh intensity,Mtb MbtI inh,MenB inh
CCOC(=O)N1CCN(C(=O)c2ccc3c(=O)n(CCc4ccccc4)c(=O)[nH]c3c2)CC1,101.0,99.0,-10.4,-10.8
O=C(O)c1c2c(nc3ccccc13)CCN(S(=O)(=O)c1ccc(Cl)cc1)C2,101.0,101.0,-5.9,-0.4
O=C(COC(=O)C1CC(=O)N(Cc2ccco2)C1)Nc1cccc(C(=O)Nc2cccc(C(F)(F)F)c2)c1 (configuration not stated),104.0,110.0,-5.2,-34.0
COc1ccc(C2=NN(C(=O)c3cccs3)C(c3cc4ccccc4nc3Cl)C2)cc1 (configuration not stated),103.0,108.0,-8.8,-8.1
CCN(CC)CCCn1c(SCc2nc3sc4c(c3c(=O)[nH]2)CCC4)nc2ccccc2c1=O,120.0,120.0,2.0,15.3
O=C(COc1ccc2ccc(=O)oc2c1)c1ccccc1Cl,98.0,94.0,-9.5,nt
CC(C(=O)Nc1ccc(S(=O)(=O)N2CCCC2)cc1)N(C)Cc1ccc(F)cc1 (configuration not stated),108.0,112.0,-13.4,-3.2
CCCCS(=O)(=O)N1CCc2ccccc2C1,98.0,99.0,3.5,12.5
O=C(COc1ccccc1F)Nc1ccccc1O,104.0,100.0,1.2,nt
CC1CCCCN1C(=O)CCc1nc2ccccc2n1-c1ccccc1 (configuration not stated),101.0,97.0,20.1,-4.7
CN(C)c1ccc(C(O)C(=O)c2ccccc2)cc1 (configuration not stated),99.0,96.0,-0.8,-10.1
COc1ccc(N2CC(NS(C)(=O)=O)CC2=O)cc1 (configuration not stated),100.0,105.0,-6.6,-26.3
C=C(C)CSc1nnc(-c2ccc(C(C)(C)C)cc2)o1,99.0,110.0,-11.4,-13.2
Cc1ccc(C(=O)c2nccn2C)cc1C,105.0,108.0,6.9,2.5
CC(=O)Nc1n[nH]c(-c2ccc(C)cc2)c1C,102.0,102.0,1.6,-47.1
N#CCC(=O)Nc1ccccc1C(=O)O,103.0,100.0,6.5,nt
O=C(Nc1ccc(Cl)cc1)c1csnn1,101.0,101.0,18.2,-13.3
CC(NS(C)(=O)=O)c1nc(-c2ccccc2)no1 (configuration not stated),100.0,102.0,4.1,-0.8
O=C(NCCCn1ccnc1)c1cccc(S(=O)(=O)Nc2ccccc2F)c1,101.0,108.0,-13.2,-27.1
O=C(CSc1nc(=O)n(Cc2ccncc2)c2c1CCCC2)Nc1ccccc1,105.0,109.0,4.6,-20.1
O=C(CNC(=O)c1cccc(Cl)c1)Nc1ccc(Br)cc1C(=O)c1ccccc1,105.0,105.0,14.2,-38.9
O=C(C1CCCC1)N(CC1CCCO1)c1nc2ccccc2s1 (configuration not stated),99.0,73.0,5.2,5.0
COc1cccc(/C=N/NC(=O)CN2CC(c3ccccc3)CC2=O)c1OC (configuration not stated),102.0,101.0,103.0,5.2
COc1ccc(C2C(C(=O)N3CCC(C)CC3)c3ccccc3C(=O)N2C)cc1 (configuration not stated),100.0,103.0,-6.7,2.1
CC(C)(C)C(=O)Nc1c(Cl)sc2nccc(=O)n12,106.0,107.0,3.3,-22.2
C/C=N/NC(=O)CSc1nc2ccccc2s1,100.0,101.0,12.4,4.4
CC(N)(Cc1cccc(O)c1)C(=O)O (configuration not stated),106.0,111.0,-7.4,-16.8
Cc1ccc(CN(C)C(=O)c2ccc(-c3ccccc3)cc2)o1,nt,nt,-4.2,-14.4
Cn1c(=O)c(=O)n(C)c2cc(S(=O)(=O)N3CCSc4ccccc43)ccc21,100.0,106.0,-5.5,0.7
Cc1ccc(C2=NC(C(C)C)NC(c3ccccc3O)C2)cc1 (configuration not stated),101.0,103.0,-0.2,-6.4

# Taken from above.
# PV pol inh intensity with O=C(C1CCCC1)N(CC1CCCO1)c1nc2ccccc2s1 (configuration not stated) → 73.0
# PV pol inh intensity with CC(C)(C)C(=O)Nc1c(Cl)sc2nccc(=O)n12 → 107.0

# Additional entries follow:
SMILES,PV pol inh,PV pol inh intensity,Mtb MbtI inh,MenB inh
CCc1nnc2c(-n3nc(C)cc3C)nc3ccccc3n12,100.0,107.0,-0.1,-6.9
COc1cccc(Oc2ccc(C(F)(F)F)cc2N)c1,100.0,97.0,4.0,nt
COc1cccc(C(=O)Nc2nn3c(COc4ccccc4)nnc3s2)c1,103.0,108.0,-6.9,-23.1
N#Cc1ccc(-c2csc(-c3ccc(C4SCCS4)cc3)n2)cc1,106.0,99.0,10.0,7.8
COc1cc(OC)cc(-c2nc3c4ccccc4[nH]c(=O)n3n2)c1,100.0,102.0,31.8,-6.4
Cc1cc(C)nc(NCC(O)COc2ccccc2C)n1 (configuration not stated),101.0,101.0,-18.8,-2.7
Cc1ccc(S(=O)(=O)NCCc2nnc3ccc(SCC(=O)N4CCCC4)nn23)cc1,98.0,101.0,-11.6,-4.5
CC1CSC(N(C(=O)/C=C/c2cn(CCC#N)c3ccccc23)c2ccc(Cl)cc2)=N1 (configuration not stated),105.0,97.0,-6.5,-25.3
O=C(c1ccco1)N1CCN(C2CC(=O)N(c3ccc(F)c(Cl)c3)C2=O)CC1 (configuration not stated),104.0,102.0,24.1,-34.3
COC(=O)C1=CN(C(C)C)C=C(C(=O)OC)C1c1ccc(C(C)C)cc1,100.0,102.0,100.5,-57.1
Cc1cc(Cl)ccc1N=C(N)NN,108.0,111.0,-4.7,-11.5
COc1cccc(C(N)=O)c1O,102.0,108.0,-78.7,-8.7
CCC1(CC)C(=O)C(C)(C)C(=O)OC1c1ccccn1 (configuration not stated),107.0,112.0,nt,-16.5
COc1ccc(-n2nc(C(=O)NCC(=O)N3CCOCC3)c3ccccc3c2=O)cc1,104.0,98.0,23.7,-19.2
CCOC(=O)c1c(NS(=O)(=O)c2ccccc2)n(CCCOC)c2nc3ccccc3nc12,100.0,114.0,26.4,-65.4
COc1cccc(N(C)C(=O)c2cccc(I)c2)n1,105.0,99.0,17.9,9.5
COc1ccc(NC(=O)CCSc2ccc3ccccc3n2)cc1,102.0,106.0,-63.0,-30.7
CCN(CC)CCCCCCCCOC(=O)c1cc(OC)c(OC)c(OC)c1,101.0,100.0,-4.8,nt
COc1cc(OC)c(NC(=O)Cn2cnc3onc(-c4ccc(F)cc4)c3c2=O)cc1Cl,101.0,103.0,-12.6,1.3
CSc1ccccc1C(=O)NC1CC1,104.0,96.0,3.4,6.0
CCOC(=O)CN1CC23C=CC(O2)C(C(=O)NCc2ccc(OC)cc2)C3C1=O (configuration not stated),104.0,99.0,7.8,-17.4
COc1ccc2c(CNCCc3ccccc3OC)c(C(=O)O)n(C)c2c1,103.0,107.0,-18.4,-6.2
CCN(CC)S(=O)(=O)c1cccc(-n2sc3ccccc3c2=O)c1,108.0,108.0,100.4*,-19.1
Nc1nc(SCc2ccccc2)n(-c2ccccc2)n1,102.0,98.0,nt,-2.4
Cc1cc(C(=O)Cn2cc(S(=O)(=O)N(C)C)ccc2=O)c(C)n1C1CCS(=O)(=O)C1 (configuration not stated),97.0,102.0,36.3,-6.9
Nc1cc(=O)[nH]c(SCC(=O)Nc2ccccc2)n1,100.0,102.0,-0.4,-12.5
Nn1c(Cc2cccc3ccccc23)n[nH]c1=S,108.0,107.0,nt,-12.1
N#Cc1c(N2CCN(C(=S)NCc3ccccc3)CC2)nc(-c2ccccc2)c2c1CCCC2,102.0,98.0,17.9,-5.5
CC(C)CCn1c(=O)c2sccc2n2c(CCCC(=O)NC3CC3)nnc12,100.0,103.0,-56.0,0.2
Cc1cc(=O)oc2cc(OCC(=O)N(c3ccccc3)C(C)C)ccc12,101.0,103.0,111.2,-16.5
O=C(Oc1cccc2cccnc12)c1cc(C(F)(F)F)cc(C(F)(F)F)c1,150.0,207.0,-7.2,-14.7
Cc1onc(-c2ccccc2Cl)c1C(=O)Nc1ccc(S(=O)(=O)N2CCC(C)CC2)cc1,103.0,101.0,-10.7,-17.4
O=C1Cc2cc(C(=O)CSc3nnc(C4CC4)n3-c3ccccc3)ccc2N1,106.0,103.0,-0.6,-16.0
COc1cc(C=Nc2ccc(O)cc2)ccc1OC(=O)CC1SC(=O)NC1=O (configuration not stated),101.0,105.0,11.3,2.3
CC(=O)Oc1ccc(-c2nc3cc(Cl)ccc3o2)cc1,104.0,104.0,-123.6,-7.8
O=C(NCC(c1ccco1)N1CCN(c2ccccc2)CC1)c1ccccc1 (configuration not stated),100.0,105.0,0.8,14.9
CCCN1COc2ccc3c(C)cc(=O)oc3c2C1,105.0,103.0,115.4,-20.2
CSc1ccc(NS(=O)(=O)c2ccc(-n3cnnn3)cc2)cc1,101.0,101.0,1.8,-3.3
S=C(NC1CC1)NC1CCCc2ccccc21 (configuration not stated),102.0,108.0,-0.5,-19.0
CC1(C)OC(=O)C(=C2C3CC4CC(C3)CC2C4)C(=O)O1,101.0,96.0,0.8,-11.5
N=C1C(c2ccccc2)=C(O)CN1c1ccc(S(=O)(=O)N2CCOCC2)cc1,96.0,100.0,2.9,-0.2
COC(=O)Cn1ncc2c3ccccc3n(Cc3cc(C)ccc3C)c2c1=O,100.0,105.0,28.6,3.3
COC(=O)C1C(c2ccccc2)C(C(=O)OCc2ccccc2)C1c1ccccc1 (configuration not stated),112.0,112.0,nt,-10.2
O=C(O)c1cnc(-c2ccccc2)nc1-c1ccncc1,97.0,104.0,-0.5,12.0
Nc1ccc(Sc2ccc3ccccc3c2Cl)c(Cl)c1,101.0,98.0,6.2,-34.3

# A different layout for some results above:
smiles | PV pol inh | PV pol inh intensity | Mtb MbtI inh | MenB inh
CC(C)CCn1c(=O)c2sccc2n2c(CCCC(=O)NC3CC3)nnc12 | 100.0 | 103.0 | -56.0 | 0.2
Cc1cc(=O)oc2cc(OCC(=O)N(c3ccccc3)C(C)C)ccc12 | 101.0 | 103.0 | 111.2 | -16.5
O=C(Oc1cccc2cccnc12)c1cc(C(F)(F)F)cc(C(F)(F)F)c1 | 150.0 | 207.0 | -7.2 | -14.7
Cc1onc(-c2ccccc2Cl)c1C(=O)Nc1ccc(S(=O)(=O)N2CCC(C)CC2)cc1 | 103.0 | 101.0 | -10.7 | -17.4
O=C1Cc2cc(C(=O)CSc3nnc(C4CC4)n3-c3ccccc3)ccc2N1 | 106.0 | 103.0 | -0.6 | -16.0
COc1cc(C=Nc2ccc(O)cc2)ccc1OC(=O)CC1SC(=O)NC1=O (configuration not stated) | 101.0 | 105.0 | 11.3 | 2.3
CC(=O)Oc1ccc(-c2nc3cc(Cl)ccc3o2)cc1 | 104.0 | 104.0 | -123.6 | -7.8
O=C(NCC(c1ccco1)N1CCN(c2ccccc2)CC1)c1ccccc1 (configuration not stated) | 100.0 | 105.0 | 0.8 | 14.9
CCCN1COc2ccc3c(C)cc(=O)oc3c2C1 | 105.0 | 103.0 | 115.4 | -20.2
CSc1ccc(NS(=O)(=O)c2ccc(-n3cnnn3)cc2)cc1 | 101.0 | 101.0 | 1.8 | -3.3
S=C(NC1CC1)NC1CCCc2ccccc21 (configuration not stated) | 102.0 | 108.0 | -0.5 | -19.0
CC1(C)OC(=O)C(=C2C3CC4CC(C3)CC2C4)C(=O)O1 | 101.0 | 96.0 | 0.8 | -11.5
N=C1C(c2ccccc2)=C(O)CN1c1ccc(S(=O)(=O)N2CCOCC2)cc1 | 96.0 | 100.0 | 2.9 | -0.2
COC(=O)Cn1ncc2c3ccccc3n(Cc3cc(C)ccc3C)c2c1=O | 100.0 | 105.0 | 28.6 | 3.3
COC(=O)C1C(c2ccccc2)C(C(=O)OCc2ccccc2)C1c1ccccc1 (configuration not stated) | 112.0 | 112.0 | nt | -10.2
O=C(O)c1cnc(-c2ccccc2)nc1-c1ccncc1 | 97.0 | 104.0 | -0.5 | 12.0
Nc1ccc(Sc2ccc3ccccc3c2Cl)c(Cl)c1 | 101.0 | 98.0 | 6.2 | -34.3

# More records follow.
SMILES,PV pol inh,PV pol inh intensity,Mtb MbtI inh,MenB inh
COc1cc(N)c(Cl)cc1C(=O)OCC(=O)NC1(C#N)CCCCC1,104.0,98.0,-4.8,-41.7
CCCCCn1c(CCC(=O)Oc2ccccc2OC)nc2c1c(=O)[nH]c(=O)n2CCCC,104.0,109.0,34.4,-26.2
CCc1ccc(C2NCCc3cc4c(cc32)OCCO4)cc1 (configuration not stated),97.0,104.0,nt,-0.6
c1ccc(-c2nnc(NC3=NCCC3)o2)cc1,98.0,101.0,16.1,-10.1
O=C1CC(C(=O)c2ccccc2)N=C(N2CCOCC2)N1 (configuration not stated),100.0,99.0,2.4,-13.3
N#C/C(=C\c1cccs1)C(N)=O,118.0,160.0,9.6,-7.5
CCn1c(=O)c2sccc2n2c(CCCC(=O)Nc3ccccc3)nnc12,101.0,94.0,5.2,-20.3
O=C(/C=C/c1nc2ccccc2s1)N1CCN(C(=O)C2CCCO2)CC1 (configuration not stated),105.0,109.0,29.4,-19.8
CCOc1ccc(NC(=O)COc2nsnc2N2CCOCC2)cc1,98.0,100.0,6.8,-19.5
CCOC(=O)N1CCC(NS(=O)(=O)c2csc(C(N)=O)c2)CC1,102.0,101.0,-16.6,-34.5
CNC(=O)COC(=O)c1ccc(Br)o1,104.0,99.0,3.1,-10.0
N=c1c(S(=O)(=O)c2ccccc2)cc2c(=O)n3ccccc3nc2n1C1CCCC1,101.0,94.0,-8.3,-44.3
CCc1ccc2c(c1)=C(c1sc(N)nc1O)C(=O)N=2,103.0,98.0,7.2,-28.3
Cc1cccc(OCC(=O)N(Cc2ccccc2)c2ccccn2)c1C,102.0,104.0,3.1,-12.0
